NS1 inh = blocks influenza NS1 protein function | S. cerevisiae slowed by influenza A NS1, growth recovery by OD600 | Potency, µM (doses to about 46.1 µM), for the others: at the top dose activity, positive = more growth | 270,000 tested, 0.4% active; note: actives are rising curves; nearly all actives have a fitted effect of over 50% in size
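A cell-based growth assay was used: compounds that relieve NS1-induced slow growth of budding yeast raise OD600. Assay medium was yeast nitrogen base with ammonium sulphate and -URA supplement, pH 6.0, with 2% galactose.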
2A StopGo = FMDV 2A StopGo reporter, luciferase signal; 410,000 tested, 1.2% active; AID 1159524; human cells with a luciferase reporter of 2A StopGo recoding; control for the full effect not named in the record; Potency, µM (titrated, usually from 57.9 µM), for the others: top-dose signal change, negative = less light; active = well fitted falling curve with a large enough effect; inconclusive = small, poorly fitted or top-dose-only effect; inactive = no such curve, though single readings can be large or run the other way; tested in HEK293T cells; note: % is set by controls: 0 for no effect and ±100 for the full control effect; nearly all actives have a fitted effect of over 45% in size; luciferase light after 4 h
SARS PLpro yeast = inhibitors of SARS-CoV papain-like protease in yeast; S. cerevisiae expressing SARS-CoV PLpro, growth rescue; control for the full effect not named in the record; Potency, µM (highest dose often 32.9 µM), without a hit: at the top dose activity, positive = growth rescue; 330,000 tested, 0.19% active; note: 0% is about no effect; nearly all actives have a fitted effect of over 55% in size; growth read by luminescence after 48 h
MARV entry inh = blocks Marburg virus binding to or entry into cells | Marburg virus pseudotyped entry inhibition, cell reporter; control for the full effect not named in the record; about a third of the inactives were read at about 46 µM | Potency, µM (doses to about 37.8 µM), without a hit: at the top dose activity change, negative = inhibition, most hits filed as inhibitors | 300,000 tested, 1.8% active | AID 540276; active = well fitted inhibition curve with a large enough effect; inconclusive = small, poorly fitted or top-dose-only effect, or effect the other way; inactive = flat fitted curve, though single readings scatter; tested in HEK293 cells; about a fifth of its hits are not listed in these tables; note: % is set by controls: 0 for no effect and ±100 for the full control effect; luciferase read-out
Cruzain noTriton = cruzain (T. cruzi) inhibition without detergent; P25779; Potency, µM, without a hit: max response, negative = inhibition, usual class: inhibitors; purified cruzain, Z-FR-AMC fluorescence, no detergent; 200,000 tested, 2.3% active; AID 1476; active = well fitted curve in the direction sought with a large enough effect; inconclusive = small, poorly fitted or top-dose-only effect, or another doubt; inactive = no such curve, though single readings can be large; an effect the other way counts as inactive or inconclusive;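 note: plate controls were enzyme without inhibitor for no effect and buffer without enzyme for full effect; nearly all actives have a fitted effect of over 40% in size; top concentration of the series not given in the record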
Target sequence (P25779 123-467 limits assumed): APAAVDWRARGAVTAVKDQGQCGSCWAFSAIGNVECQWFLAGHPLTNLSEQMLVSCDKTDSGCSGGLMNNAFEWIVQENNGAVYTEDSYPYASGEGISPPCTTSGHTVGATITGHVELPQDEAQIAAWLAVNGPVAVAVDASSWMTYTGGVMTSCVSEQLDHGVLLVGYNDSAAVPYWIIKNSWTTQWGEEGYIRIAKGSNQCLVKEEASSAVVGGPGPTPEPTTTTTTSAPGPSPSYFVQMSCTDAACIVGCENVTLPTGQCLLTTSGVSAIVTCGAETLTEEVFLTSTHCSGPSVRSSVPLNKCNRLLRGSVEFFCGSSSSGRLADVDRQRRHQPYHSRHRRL
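Purified cruzain at 1.5 nM, pre-incubated 15 min with compound at room temperature in 100 mM sodium acetate pH 5.5, 5 mM DTT, 0.00005% Triton X-100. Reaction started with 2 uM Z-FR-AMC; AMC fluorescence increase over 60 s gives rate.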
RE007 growth inh = less growth of the S. pombe RE007 Vpr strain. S. pombe RE007 Vpr strain, BacTiter-Glo ATP luminescence, 24 h; control for the full effect not named in the record. Potency, µM (highest dose often 92.2 µM), for the others: at the highest dose activity change, negative = less growth. 360,000 tested, 0.21% active; active = well fitted falling curve with a large enough effect; inconclusive = small, poorly fitted or top-dose-only effect; inactive = no such curve, though single readings can be large or run the other way;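 note: % is set by controls: 0 for no effect and ±100 for the full control effect; nearly all actives have a fitted effect of over 50% in size; the assay follows cell death caused by Vpr and the record does not say whether a fall means rescue or toxicity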
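Fission yeast strain RE007, carrying one chromosomally integrated HIV-1 vpr copy, was seeded at OD 0.01 in PMG+AL medium with 23 nL pinned compound. After 24 h at 30 °C and 99% humidity, viability was read by BacTiter-Glo luminescence.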
Cruzain inh Det = inhibitors of Trypanosoma cruzi cruzain with detergent. P25779. purified cruzain, Z-FR-AMC fluorescence, 0.01% Triton. Potency, µM, without a hit: max response, negative = inhibition, usual class: inhibitors. 200,000 tested, 0.43% active. AID 1478; active = well fitted curve in the direction sought with a large enough effect; inconclusive = small, poorly fitted or top-dose-only effect, or another doubt; inactive = no such curve, though single readings can be large; an effect the other way counts as inactive or inconclusive;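 note: plate controls were neutral wells for no effect and buffer without enzyme for full effect; nearly all actives have a fitted effect of over 40% in size; top concentration of the series not given in the record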
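Sodium acetate buffer (100 mM, pH 5.5) containing 5 mM DTT and 0.01% Triton X-100 hosted 1.5 nM cruzain and test compound for 15 min at room temperature. Cleavage of 2 uM Z-FR-AMC was then tracked by fluorescence.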
Lassa entry inh = blocks Lassa virus binding to or entry into cells. 300,000 tested, 1.2% active. Potency, µM (doses to about 37.9 µM), without a hit: at the top dose activity change, negative = inhibition, hits mostly inhibitors. AID 540256. Lassa virus pseudotype entry inhibition, cell reporter; control for the full effect not named in the record; active means well fitted inhibition curve with a large enough effect; inconclusive means small, poorly fitted or top-dose-only effect, or effect the other way; inactive means flat fitted curve, though single readings scatter; tested in HEK293 cells; note: % is set by controls: 0 for no effect and ±100 for the full control effect; nearly all actives have a fitted effect of over 50% in size; luciferase read-out
* hit, by the source's call; & = joins results of further samples; [ ] = another dose, or the depositor's remark. Unless noted, calls come from the whole dose curve; as a rule, active means well fitted rising curve with a large enough effect; inconclusive means small, poorly fitted or top-dose-only effect; inactive means no such curve, though single readings can be large or run the other way. Potency is the fitted concentration of half-maximal effect.

For CCS(=O)(=O)N1Cc2ccccc2CC1C(=O)Nc1cccc(OC)c1 (stereo not drawn) the results were NS1 inh 5%, 2A StopGo 44%[activator], SARS PLpro yeast 5%, MARV entry inh 3%[46.1 µM], RE007 growth inh 13% and Lassa entry inh 6%[46.1 µM].
Screening CCn1c(C)c(C(=O)NCCc2ccccc2)c2cc(OC)ccc21 returned NS1 inh -2%, 2A StopGo 12%, SARS PLpro yeast 0%, MARV entry inh -28%, RE007 growth inh -7% and Lassa entry inh inconclusive.
For C=CCc1ccc(OCCCOc2ccc(C(=O)O)cc2)c(OC)c1 the results were NS1 inh -1%, 2A StopGo 22%, SARS PLpro yeast 0%, MARV entry inh 3%[46.1 µM], RE007 growth inh -3% and Lassa entry inh -6%.
`Cc1nnc(SC(C)C(=O)NC2CCCCC2)s1` (stereo not drawn) gave 2A StopGo -8%, SARS PLpro yeast 0%, MARV entry inh -4%[46.1 µM], RE007 growth inh 3% and Lassa entry inh 9%.
`C/C(=N\Nc1ccccc1Cl)c1ccc(-n2ccnc2)cc1` gave NS1 inh -7%, 2A StopGo -15%, SARS PLpro yeast -2%, MARV entry inh 3%, RE007 growth inh 5% and Lassa entry inh inconclusive.
Cc1nc(N)sc1N=Nc1ccc(Br)cc1 was read as NS1 inh -48%, 2A StopGo 59%[activator], SARS PLpro yeast -29%, MARV entry inh inconclusive, Cruzain noTriton -1%, RE007 growth inh -23%, Cruzain inh Det -5.5% and Lassa entry inh inconclusive.
Cc1nc2ccccc2n1C1CC(=O)N(Cc2ccccc2)C1=O (stereo not drawn) was read as NS1 inh -5%, 2A StopGo inconclusive, SARS PLpro yeast -2%, MARV entry inh 8%, Cruzain noTriton 6%, RE007 growth inh -1%[3.69 µM], Cruzain inh Det 4.5% and Lassa entry inh -9%.
Screening CC(=O)c1nc(N2C(=O)C3CC=C(C)CC3C2=O)sc1C (stereo not drawn) returned NS1 inh -39%, 2A StopGo 45%[activator], SARS PLpro yeast -4%, MARV entry inh inconclusive, Cruzain noTriton -10%, RE007 growth inh 15%, Cruzain inh Det 0.5% and Lassa entry inh 1%.
Screening OCC1(Cc2ccccc2)CCCN(C2CCCC2)C1 (stereo not drawn) returned NS1 inh 2%, 2A StopGo 31%[activator], SARS PLpro yeast 0%, MARV entry inh inconclusive, RE007 growth inh -18% and Lassa entry inh -22%[46.1 µM].
For COc1ccc2nc(SCC(O)c3cccc(Br)c3)[nH]c2c1 (stereo not drawn) the results were 2A StopGo 18%, MARV entry inh 8%[46.1 µM], Cruzain noTriton -3%, Cruzain inh Det -14% and Lassa entry inh 6%[46.1 µM].
Cc1cccc(OCc2nnc(SCC(=O)c3c(N)n(C4CC4)c(=O)[nH]c3=O)o2)c1 was read as 2A StopGo -18%, SARS PLpro yeast -6%, MARV entry inh 12%, RE007 growth inh -1% and Lassa entry inh -16%[46.1 µM].
CCCn1cc(C(=O)O)cn1 was read as 2A StopGo 2%, SARS PLpro yeast 7%, MARV entry inh 12%[46.1 µM], RE007 growth inh 1% and Lassa entry inh 7%[46.1 µM].
`CC(C)CN(C(=O)CN1CCN(c2ccc(F)cc2)CC1)c1c(N)n(CC(C)C)c(=O)[nH]c1=O` gave NS1 inh -10%, 2A StopGo -10%, SARS PLpro yeast 12%, MARV entry inh -11%, Cruzain noTriton -6%, RE007 growth inh -9%, Cruzain inh Det -1.6% and Lassa entry inh 3%.
`O=c1cc(O)c2c(=O)n(-c3ccccc3)c3ccccc3c2o1` gave NS1 inh inconclusive, 2A StopGo -16%, SARS PLpro yeast 9%, MARV entry inh inconclusive, Cruzain noTriton -24%, RE007 growth inh 18%, Cruzain inh Det -0.4% and Lassa entry inh 0%.
CCCCCOc1ccc(NC(=O)CCCC(=O)O)cc1 was read as NS1 inh 2%, 2A StopGo -12%, SARS PLpro yeast 2%, MARV entry inh -1%, Cruzain noTriton -6%, RE007 growth inh 2%, Cruzain inh Det -1.5% and Lassa entry inh 17%.
Cc1ccc(-c2nc(Cn3c(=O)cc(-c4ccccc4)c4c(C)nn(C)c43)c(C)o2)cc1 was read as 2A StopGo -13%, Cruzain noTriton 6%, Cruzain inh Det -2.1% and Lassa entry inh -21%[46.1 µM].
O=C(COc1ccc(Cl)cc1Cl)N/N=C/c1ccccn1 was read as NS1 inh -56%, 2A StopGo 3%, SARS PLpro yeast inconclusive and RE007 growth inh -17%.
For Cc1noc(C)c1C(=O)N1CCC(Cc2ccccc2)CC1 the results were NS1 inh -5%, 2A StopGo -7%, SARS PLpro yeast 0%, MARV entry inh 12%, Cruzain noTriton 9%, RE007 growth inh 19%, Cruzain inh Det 3.3% and Lassa entry inh 33%[14.3 µM].
For Cc1c(CNC2CCCCCC2)c(C(=O)O)c(C)n1Cc1c(F)cccc1Cl the results were 2A StopGo 0%, MARV entry inh -1%[46.1 µM], Cruzain noTriton 9%, Cruzain inh Det -3.5% and Lassa entry inh 6%[46.1 µM].
Screening Cc1nc(N2CCN(c3ccccc3)CC2)nc2c1C(=O)CC(c1ccccc1)C2 (stereo not drawn) returned NS1 inh 1%, 2A StopGo -9%, SARS PLpro yeast 5%, MARV entry inh -21%, Cruzain noTriton inconclusive, RE007 growth inh 12%, Cruzain inh Det -1.2% and Lassa entry inh -18%.
O=C(Nc1ccc(S(=O)(=O)N2CCCCC2)cc1)C1CC(=O)N(c2ccc(F)cc2)C1 (stereo not drawn) was read as NS1 inh 2%, 2A StopGo -16%, SARS PLpro yeast 0%, MARV entry inh inconclusive, RE007 growth inh 5% and Lassa entry inh -19%[46.1 µM].
COC(=O)c1ccc(S(=O)(=O)NCCc2ccccc2OC)n1C was read as NS1 inh -4%, 2A StopGo 25%, SARS PLpro yeast 0%, MARV entry inh -18%[46.1 µM], RE007 growth inh -2% and Lassa entry inh 0%.
`CC(=O)Nc1ccccc1C(=O)C(=O)O` gave NS1 inh -8%, 2A StopGo -4%&-17%, SARS PLpro yeast -3%, MARV entry inh 13%&13%, Cruzain noTriton -14%&0%, RE007 growth inh -13%, Cruzain inh Det 3.3%&2.4% and Lassa entry inh -13%.
Screening Cc1cccc(OC(C)C(=O)Nc2ncn[nH]2)c1 (stereo not drawn) returned 2A StopGo 8%, Cruzain noTriton -5%, Cruzain inh Det -0.8% and Lassa entry inh 2%[46.1 µM].
For CC(C)CN1CC(COCc2ccccc2)Oc2ccccc2S1(=O)=O (stereo not drawn) the results were 2A StopGo -22%, SARS PLpro yeast 15%, MARV entry inh inconclusive and RE007 growth inh -9%.
For C[n+]1cn(/N=C/c2ccccc2)c2ccccc21 the results were NS1 inh inconclusive, 2A StopGo -19%, SARS PLpro yeast inconclusive, MARV entry inh 8%, Cruzain noTriton 0%, Cruzain inh Det -2.9% and Lassa entry inh 1%.
Cc1cc(SCC(=O)N/N=C/c2ccc(O)cc2O)c(C)cc1Br was read as NS1 inh -85%, 2A StopGo inconclusive, SARS PLpro yeast 10µM*, MARV entry inh inconclusive, Cruzain noTriton 6%, RE007 growth inh 14%, Cruzain inh Det -14% and Lassa entry inh 4.6µM*.
Screening CCOC(=O)N1CCN(C(=O)c2c[nH]c3ccc(S(=O)(=O)N(C)c4ccc(F)cc4)cc3c2=O)CC1 returned NS1 inh -22%, 2A StopGo -8%, SARS PLpro yeast 1% and RE007 growth inh 15%.
For CCCS(=O)(=O)Nc1ccc(-c2cn3c(n2)SCC3)cc1 the results were NS1 inh inconclusive, 2A StopGo 4%, SARS PLpro yeast 8% and RE007 growth inh 0%.
Screening CCOc1cc2sc(N3CCC(C(=O)Nc4ccc(C(C)C)cc4)CC3)nc2cc1Br returned 2A StopGo 54%[activator], MARV entry inh inconclusive, Cruzain noTriton -6% and Cruzain inh Det -2.5%.
For CCOc1ccc(CCNC(=O)c2sc3ncccc3c2-n2cccc2)cc1OCC the results were 2A StopGo inconclusive, Cruzain noTriton inconclusive, Cruzain inh Det -6.4% and Lassa entry inh inconclusive.
`CC(=O)Nc1ccc(C2Nc3c(C)cc(C)cc3-c3cc(C)nn32)cc1` (stereo not drawn) gave 2A StopGo inconclusive, MARV entry inh inconclusive, Cruzain noTriton -10%, Cruzain inh Det -3.2% and Lassa entry inh 3%[46.1 µM].
COc1ccc(OC)c(CCNC(=O)c2ccc(NC3=NC4CS(=O)(=O)CC4S3)cc2)c1 (stereo not drawn) was read as NS1 inh inconclusive, 2A StopGo -16%, SARS PLpro yeast -7% and RE007 growth inh 0%.
`COc1ccc(Br)cc1CNC(=O)Cn1ncn2nc(-c3cccs3)cc2c1=O` gave 2A StopGo -20%, MARV entry inh -16%[46.1 µM], Cruzain noTriton 9%, Cruzain inh Det -7.4% and Lassa entry inh 1%[46.1 µM].
For COc1ccc(CN2CCc3c(c(=O)n4ncc(C(=O)N5CCN(c6ccccc6OC)CC5)c4n3C)C2)cc1 the results were 2A StopGo inconclusive, Cruzain noTriton inconclusive, Cruzain inh Det -3.5% and Lassa entry inh inconclusive.
Cc1ccc(C)c(NC(=O)CSc2ccc(-c3ccco3)nn2)c1 was read as NS1 inh inconclusive, 2A StopGo -16%, SARS PLpro yeast inconclusive, MARV entry inh 8%, Cruzain noTriton -2%, RE007 growth inh 22%, Cruzain inh Det -8.2% and Lassa entry inh 19%.
Screening COc1cccc(NC(=O)CSCc2cc(=O)n3ccsc3n2)c1 returned NS1 inh -22%, 2A StopGo 28%, SARS PLpro yeast 4%, MARV entry inh 15%[46.1 µM], RE007 growth inh 5% and Lassa entry inh -1%[46.1 µM].
CCCCCNC(=O)[C@@H]1CSC2c3ccccc3C(=O)N21 (stereo partly drawn) was read as NS1 inh 3%, 2A StopGo -17%, SARS PLpro yeast 1% and RE007 growth inh 0%.
`O=C(N/N=C/c1ccccc1[N+](=O)[O-])c1ccc(CN2CCOCC2)cc1` gave NS1 inh -9%, 2A StopGo 10%, SARS PLpro yeast -1%, MARV entry inh -9%[46.1 µM], Cruzain noTriton -5%, RE007 growth inh -16%, Cruzain inh Det -4.7% and Lassa entry inh 6%[46.1 µM].
For COC(=O)c1nn(-c2ccc3c(c2)CCN3C(C)=O)cc1O the results were NS1 inh 3%, 2A StopGo 8.9µM*, SARS PLpro yeast -9%, MARV entry inh inconclusive, Cruzain noTriton -9%, RE007 growth inh -7%, Cruzain inh Det -18% and Lassa entry inh 2.6µM*.

Screens: PubChem, National Center for Advancing Translational Sciences (NCATS)

Rows are unselected; any-hit rate near 4.7%.
